# Env fusion inh – inhibitors of HIV Env-mediated cell fusion; HeLa-JRFL Env/CEM21 cell fusion, luciferase; inhibition, % at 12.3 µM; 360,000 tested, 1.1% active; AID 651610;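 active means mean replicate inhibition score of at least 50 and every replicate individually at or above 50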;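 further: 0% = plate neutral controls and 100% = maraviroc near 300 nM; one replicate is shown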
# UUG fidelity – alters start codon recognition fidelity in yeast. S. cerevisiae UUG-firefly luciferase reporter, luminescence/redox ratio. AID 602363. 350,000 tested, 0.13% active. activity score, % at 18.7 µM;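 active means replicate mean at a twofold rise or more, about +100% in these data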;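 further: firefly luciferase made from a UUG start codon reports start codon fidelity; reporter light over untreated wells divided by growth signal over untreated wells; some hits fall short of that in this replicate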
# Starred values were filed as active, the others as inactive; [ ] = another dose, or the depositor's remark. This is a subset (hit frequency here may not be typical).
mol | UUG fidelity | Env fusion inh
O=C(C[C@@H]1C=C[C@H](NS(=O)(=O)c2ccc(F)cc2)[C@@H](CO)O1)N1CCC(Cc2ccccc2)CC1 | 3 | 8[16.7 µM]
CCC(=O)Nc1ccc2c(c1)C(=O)N(C)[C@H]1CC[C@@H](CC(=O)NCCc3ccncc3)O[C@@H]1CO2 | -15 | -10[16.7 µM]
CCCC(O)C#Cc1cnc2c(c1)C(=O)N([C@H](C)CO)C[C@H](C)[C@H](CN(C)C(=O)Nc1ccc(OC)cc1)O2 (some centres not stated) | 8 | 1[16.7 µM]
C[C@@H]1CN([C@@H](C)CO)C(=O)c2cc(NS(=O)(=O)c3ccc(F)cc3)ccc2O[C@@H]1CN(C)C(=O)Nc1ccc(C(F)(F)F)cc1 | 1 | 2[16.7 µM]
C[C@@H](NC(=O)C[C@H]1C=C[C@H](NS(=O)(=O)c2cccc(F)c2)[C@H](CO)O1)c1ccccc1 | -8 | 40[16.7 µM]
COc1ccc(S(=O)(=O)Nc2ccc3c(c2)C(=O)N([C@@H](C)CO)C[C@@H](C)[C@@H](CN(C)C(=O)Nc2ccc(F)cc2)OCCCC[C@@H](C)O3)cc1 | -3 | -63[16.7 µM]
C[C@@H]1CCCCO[C@@H](CN(C)C(=O)CCCN(C)C)[C@H](C)CN([C@H](C)CO)C(=O)c2cc(NC(=O)Nc3ccc(F)cc3)ccc2O1 | -2 | -18[16.7 µM]
COc1ccc(NC(=O)N(C)C[C@@H]2Oc3ncc(C#C[C@@H](C)O)cc3C(=O)N([C@@H](C)CO)C[C@@H]2C)cc1 | -16 | 11[16.7 µM]
CC(C)NC(=O)N(C)C[C@@H]1Oc2ncc(C#CCC3CCCC3)cc2C(=O)N([C@H](C)CO)C[C@H]1C | 3 | 5[16.7 µM]
CCCc1cn(CC[C@@H]2CC[C@H](NC(=O)C3CCCC3)[C@@H](CO)O2)nn1 | 13 | -2[16.7 µM]

# The list continues:
mol | UUG fidelity | Env fusion inh
O=C(NCC[C@H]1CC[C@H](NC(=O)c2ccc3c(c2)OCO3)[C@H](CO)O1)Nc1cc(F)ccc1F | -4 | 17[16.7 µM]
COC(=O)C[C@@H]1CC[C@@H]2[C@H](COc3ccc(NC(=O)c4ccccc4)cc3C(=O)N2C)O1 | -2 | -10[16.7 µM]
CCCC#Cc1ccc2c(c1)O[C@H](CN(C)CCC)[C@@H](C)CN([C@H](C)CO)S2(=O)=O | 10 | 20[16.7 µM]
C[C@@H]1CCCCO[C@@H](CN(C)S(=O)(=O)c2cn(C)cn2)[C@H](C)CN([C@@H](C)CO)C(=O)c2cc(NC(=O)NC3CCCCC3)ccc2O1 | -10 | -27[16.7 µM]
C[C@@H]1CN([C@H](C)CO)C(=O)Cc2cc(NC(=O)CCC(F)(F)F)ccc2O[C@@H]1CN(C)S(=O)(=O)c1ccc(F)cc1 | 6 | 25[16.7 µM]
CC(C)C#Cc1cnc2c(c1)C(=O)N([C@@H](C)CO)C[C@H](C)[C@@H](CN(C)C(=O)c1ccccc1)O2 | -8 | 2[16.7 µM]
C[C@@H]1CCCCO[C@H](CN(C)C(=O)Cc2ccccc2)[C@@H](C)CN([C@@H](C)CO)C(=O)c2cc(NS(=O)(=O)c3cccs3)ccc2O1 | 9 | -9[16.7 µM]
CC(C)NC(=O)Nc1cccc2c1O[C@H](CN(C)S(=O)(=O)c1ccc(F)cc1)[C@H](C)CN([C@H](C)CO)C2=O | 7 | -6[16.7 µM]
CCO[C@@H]1OC(C(=O)N2CCN(C)CC2)=C[C@H](c2ccccc2)[C@H]1CCCO | 6 | 1[16.7 µM]
Cc1ccc(-c2cnc3c(c2)C(=O)N([C@@H](C)CO)C[C@@H](C)[C@H](CN(C)C(=O)CN(C)C)O3)cc1 | 163* | 36[16.7 µM]

# Given with the structure last: entries from further up.
UUG fidelity | Env fusion inh | canonical_smiles
-4 | 17[16.7 µM] | O=C(NCC[C@H]1CC[C@H](NC(=O)c2ccc3c(c2)OCO3)[C@H](CO)O1)Nc1cc(F)ccc1F
-2 | -10[16.7 µM] | COC(=O)C[C@@H]1CC[C@@H]2[C@H](COc3ccc(NC(=O)c4ccccc4)cc3C(=O)N2C)O1

# Going on with the list:
mol | UUG fidelity | Env fusion inh
C[C@H](CO)N1C[C@H](C)[C@H](CN(C)S(=O)(=O)c2cn(C)cn2)Oc2ncc(Br)cc2C1=O | -21 | 9[16.7 µM]
COc1ccc(S(=O)(=O)N(C)C[C@@H]2Oc3ncc(C#Cc4ccc(C(F)(F)F)cc4)cc3C(=O)N([C@H](C)CO)C[C@@H]2C)cc1 | -3 | -14[16.7 µM]
COc1ccc(NC(=O)Nc2cccc3c2O[C@@H](CN(C)Cc2ccc(-c4ccccc4)cc2)[C@@H](C)CN([C@H](C)CO)C3=O)cc1 | 17 | -4[16.7 µM]
COCC(=O)Nc1ccc2c(c1)C(=O)N(C)C[C@@H](OC)[C@@H](C)CN(C)[C@H](C)CO2 | 9 | 60*[16.7 µM]
CNC[C@@H]1OCCCC[C@@H](C)Oc2ccc(NS(C)(=O)=O)cc2C(=O)N([C@H](C)CO)C[C@H]1C | 19 | 14[16.7 µM]
CC(C)NC(=O)N(C)C[C@H]1OCCCC[C@@H](C)Oc2ccc(NC(=O)c3ccncc3)cc2C(=O)N([C@H](C)CO)C[C@@H]1C | -6 | 26[16.7 µM]
C[C@@H]1CN([C@H](C)CO)C(=O)c2cc(C#CC3(O)CCCC3)cnc2O[C@H]1CN(C)Cc1ccncc1 | 21 | -2[16.7 µM]
C[C@H]1CN([C@@H](C)CO)C(=O)c2cc(NC(=O)Nc3ccc4c(c3)OCO4)ccc2O[C@H]1CN(C)C(=O)NC1CCCCC1 | -5 | 15[16.7 µM]
Cc1ccc(S(=O)(=O)Nc2ccc3c(c2)C(=O)N([C@H](C)CO)C[C@H](C)[C@H](CN(C)Cc2ccc(C(=O)O)cc2)OCCCC[C@@H](C)O3)cc1 | -4 | 9[16.7 µM]
Cc1noc(C)c1NC(=O)N[C@H]1CC[C@@H](CCNC(=O)C2CCCCC2)O[C@H]1CO | -9 | -12[16.7 µM]

# Next entries
mol | UUG fidelity | Env fusion inh
COc1ccc(NC(=O)N[C@H]2C=C[C@H](CC(=O)NCc3ccccn3)O[C@@H]2CO)cc1 | -21 | 5[16.7 µM]
C[C@H](O)C#Cc1ccc2c(c1)O[C@@H](CN(C)C(=O)C1CC1)[C@@H](C)CN([C@H](C)CO)S2(=O)=O | 10 | -8[16.7 µM]
C[C@H]1CCCCO[C@H](CN(C)S(=O)(=O)c2cn(C)cn2)[C@@H](C)CN([C@@H](C)CO)C(=O)c2cc(NS(=O)(=O)c3ccc(F)cc3)ccc2O1 | 23 | 6[16.7 µM]
C[C@H](CO)N1C[C@H](C)[C@H](CN(C)S(=O)(=O)c2ccc(F)cc2)OCCCC[C@H](C)Oc2ccc(NS(=O)(=O)c3ccc(F)cc3)cc2C1=O | 11 | -125[16.7 µM]
COc1ccc(NC(=O)Nc2ccc3c(c2)CC(=O)N([C@@H](C)CO)C[C@@H](C)[C@H](CN(C)S(=O)(=O)c2ccc(OC)cc2)O3)cc1 | 1 | 20[16.7 µM]
C[C@@H]1CN([C@H](C)CO)C(=O)c2cccc(NC(=O)C3CCOCC3)c2O[C@@H]1CN(C)Cc1ccc2c(c1)OCO2 | -14 | 2[16.7 µM]
C[C@H](CO)N1C[C@H](C)[C@H](CN(C)Cc2ccc(C(F)(F)F)cc2)OCCCC[C@H](C)Oc2ccc(NC(=O)Cc3ccccc3)cc2C1=O | -35 | 72*[16.7 µM]
C[C@@H]1CCCCO[C@H](CN(C)Cc2ccc(C(F)(F)F)cc2)[C@@H](C)CN([C@H](C)CO)C(=O)c2cc(NC(=O)CCCN(C)C)ccc2O1 | -8 | 9[16.7 µM]
C[C@H](CO)N1C[C@H](C)[C@@H](CN(C)C(=O)c2ccncc2)Oc2cc(C#Cc3ccncc3)ccc2S1(=O)=O | -1 | -7[16.7 µM]
Cc1ccc(S(=O)(=O)Nc2cccc3c2O[C@@H](CN(C)CC2CC2)[C@H](C)CN([C@H](C)CO)C3=O)cc1 | -2 | -4[16.7 µM]

# The list continues.
mol | UUG fidelity | Env fusion inh
COCC#Cc1cnc2c(c1)C(=O)N([C@H](C)CO)C[C@@H](C)[C@@H](CN(C)C(=O)Cc1ccncc1)O2 | 13 | 0[16.7 µM]
O=C(NCC[C@H]1CC[C@H](NC(=O)C2CCCCC2)[C@@H](CO)O1)c1cc(Cl)cc(Cl)c1 | -1 | 8[16.7 µM]
COCC#Cc1ccc2c(c1)O[C@H](CN(C)C(=O)COC)[C@@H](C)CN([C@@H](C)CO)S2(=O)=O | -5 | 14[16.7 µM]
C[C@@H]1CCCCO[C@@H](CN(C)C)[C@@H](C)CN([C@@H](C)CO)C(=O)c2cc(NC(=O)C3CCCCC3)ccc2O1 | 3 | 8[16.7 µM]
COc1ccc(S(=O)(=O)Nc2ccc3c(c2)C(=O)N([C@H](C)CO)C[C@@H](C)[C@H](CN(C)C(=O)Nc2ccccc2)OCCCC[C@@H](C)O3)cc1 | 2 | -66[16.7 µM]
CCCC#Cc1cnc2c(c1)C(=O)N([C@H](C)CO)C[C@@H](C)[C@@H](CN(C)C(=O)c1cccnc1)O2 | -19 | -13[16.7 µM]
O=C(NCC[C@H]1CC[C@@H](NC(=O)C2CCCCC2)[C@@H](CO)O1)c1ccc(F)cc1 | -4 | -1[16.7 µM]
CO[C@H]1CN(C)C(=O)c2cc(NS(=O)(=O)c3ccc(F)cc3)ccc2OC[C@H](C)NC[C@H]1C | -1 | 0[16.7 µM]
CCCN(C)C[C@H]1Oc2cc(-c3ccc(OC)cc3)ccc2S(=O)(=O)N([C@@H](C)CO)C[C@H]1C | -3 | -17[16.7 µM]
CC(C)NC(=O)N(C)C[C@H]1Oc2c(NS(C)(=O)=O)cccc2C(=O)N([C@@H](C)CO)C[C@@H]1C | 7 | -3[16.7 µM]

# Following part.
mol | UUG fidelity | Env fusion inh
C[C@@H]1CN([C@@H](C)CO)C(=O)c2cccc(NC(=O)C3CCCCC3)c2O[C@H]1CN(C)CC1CCCCC1 | 3 | 63*[16.7 µM]
COc1ccc(S(=O)(=O)Nc2ccc3c(c2)C(=O)N([C@@H](C)CO)C[C@H](C)[C@H](CN(C)Cc2ccc(C(=O)O)cc2)OCCCC[C@@H](C)O3)cc1 | 19 | 6[16.7 µM]
Cc1noc(C)c1S(=O)(=O)Nc1ccc2c(c1)C(=O)N([C@H](C)CO)C[C@H](C)[C@H](CN(C)S(=O)(=O)c1cn(C)cn1)OCCCC[C@@H](C)O2 | -2 | 0[16.7 µM]
C[C@@H]1CN([C@@H](C)CO)C(=O)c2cc(-c3ccccc3)cnc2O[C@@H]1CN(C)Cc1ccccc1 | -3 | -10[16.7 µM]
CCCNC(=O)C[C@H]1CC[C@@H]2[C@@H](COc3ccc(NC(=O)Nc4ccccc4F)cc3C(=O)N2C)O1 | 10 | 16[16.7 µM]
CC(=O)N1C[C@H]2CON(C)[C@H]2C[C@H]1c1cccc(N2CCOCC2)c1 | -5 | 6
CS(=O)(=O)N1[C@H](C#N)[C@H](c2ccc(C#CC3CCCC3)cc2)[C@H]1CO | 2 | 2[16.7 µM]
CCC(=O)Nc1ccc2c(c1)OC[C@H](C)N(C(C)=O)C[C@H](C)[C@@H](OC)CN(C)C2=O | -8 | 13[16.7 µM]
COc1ccc(S(=O)(=O)N(C)C[C@H]2OCCCC[C@H](C)Oc3ccc(NC(=O)Nc4ccc(C(F)(F)F)cc4)cc3C(=O)N([C@H](C)CO)C[C@@H]2C)cc1 | -22 | 15[16.7 µM]
O=C(NCC[C@H]1CC[C@@H](NC(=O)C2CCOCC2)[C@@H](CO)O1)c1ccc(F)cc1 | 0 | 1[16.7 µM]

# Full records, quoted from the list. Values in the order: UUG fidelity | Env fusion inh
# Cc1ccc(-c2cnc3c(c2)C(=O)N([C@@H](C)CO)C[C@@H](C)[C@H](CN(C)C(=O)CN(C)C)O3)cc1 is listed as 163* | 36[16.7 µM]
# O=C(NCC[C@H]1CC[C@@H](NC(=O)C2CCCCC2)[C@@H](CO)O1)c1ccc(F)cc1 is listed as -4 | -1[16.7 µM]
# O=C(NCC[C@H]1CC[C@@H](NC(=O)C2CCOCC2)[C@@H](CO)O1)c1ccc(F)cc1 is listed as 0 | 1[16.7 µM]
# C[C@H](CO)N1C[C@H](C)[C@@H](CN(C)C(=O)c2ccncc2)Oc2cc(C#Cc3ccncc3)ccc2S1(=O)=O is listed as -1 | -7[16.7 µM]
# COC(=O)C[C@@H]1CC[C@@H]2[C@H](COc3ccc(NC(=O)c4ccccc4)cc3C(=O)N2C)O1 is listed as -2 | -10[16.7 µM]

# The listing continues:
mol | UUG fidelity | Env fusion inh
CC(C)NC(=O)Nc1ccc2c(c1)C(=O)N([C@H](C)CO)C[C@@H](C)[C@@H](CN(C)Cc1ccc3c(c1)OCO3)OCCCC[C@H](C)O2 | 2 | -2[16.7 µM]
C[C@@H]1CCCCO[C@H](CN(C)S(=O)(=O)c2ccc(Cl)cc2)[C@H](C)CN([C@H](C)CO)C(=O)c2cc(NS(=O)(=O)c3cccs3)ccc2O1 | 9 | 47[16.7 µM]
C[C@@H]1CCCCO[C@H](CN(C)Cc2ccc(C(F)(F)F)cc2)[C@H](C)CN([C@@H](C)CO)C(=O)c2cc(N(C)C)ccc2O1 | 0 | 6[16.7 µM]
CNC[C@@H]1Oc2ccc(NS(=O)(=O)c3cn(C)cn3)cc2C(=O)N([C@@H](C)CO)C[C@@H]1C | -13 | -14[16.7 µM]
C[C@@H]1CCCCO[C@H](CN(C)Cc2ccncc2)[C@@H](C)CN([C@@H](C)CO)C(=O)c2cc(NC(=O)Nc3ccc(F)cc3)ccc2O1 | -3 | 5[16.7 µM]
CO[C@@H]1CN(C)C(=O)c2cc(NS(=O)(=O)c3ccc(F)cc3)ccc2OC[C@@H](C)NC[C@@H]1C | 5 | -1[16.7 µM]
COc1ccc(-c2cnc3c(c2)C(=O)N([C@@H](C)CO)C[C@H](C)[C@@H](CN(C)S(C)(=O)=O)O3)cc1 | 9 | -16[16.7 µM]
C[C@@H]1CCCCO[C@@H](CN(C)C(=O)c2ccncc2)[C@H](C)CN([C@@H](C)CO)C(=O)c2cc(NS(=O)(=O)c3ccc(Cl)cc3)ccc2O1 | 12 | -7[16.7 µM]
